Six1-Eya2 blk = inhibitors of human Six1/Eya2 interaction; AlphaScreen GST-Six1/His-Eya2 binding, biochemical; hits give low values; control for the full effect not named in the record; hit rate 0.56% among 360,000; activity change, % (no concentration beside the values); Q15475+O00167; in the data active = activity change below about -65%; inconclusive = about -30% to -65%; inactive = above about -30%; note: % is set by controls: 0 for no effect and ±100 for the full control effect; compound concentration not given in the record
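AlphaScreen luminescence read after one hour at 37 °C in darkness. Pin-transferred compounds met GST-Six1 and His-Eya2 protein (5X stock 250 nM/500 nM) plus glutathione donor and Ni-chelate acceptor beads (5X, 50 ug/mL).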
D2 agonist = activates the human D2 dopamine receptor; P14416; DiscoveRx PathHunter D2 beta-arrestin, luminescence, 90 min; 100% = 57 uM dopamine signal; activation, % (no concentration beside the values); hit rate 0.084% among 360,000; in the data active = activation above about 40%; inconclusive = about 15% to 40%; inactive = below about 15%; note: compound concentration not given in the record; the text of the record calls up to 30% inactive
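DiscoveRx PathHunter D2 beta-arrestin cells (2,100/well) attached overnight, then compound-stimulated 90 min at 37 C in HBSS/10 mM HEPES/0.1% Tween-20 buffer; beta-galactosidase complementation read by luminescence after 1 h at ambient temperature. Dopamine 57 uM final (EC100) as control.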
CtBP-E1A blk = inhibitors of CtBP/E1A interaction | AlphaScreen GST-E1A/His-CtBP binding, 1536-well; hits give low values; control for the full effect not named in the record | activity change, % (no concentration beside the values) | hit rate 0.49% among 340,000 | AID 651724; in the data active means activity change below about -65%; inconclusive means about -30% to -65%; inactive means above about -30%; note: % is set by controls: 0 for no effect and ±100 for the full control effect; compound concentration not given in the record
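Protein mix (5X: 125 nM each GST-E1A, His-CtBP) was incubated with pinned compound 2 h at 37 deg C in dark, in 50 mM Tris pH 8.0 buffer with 300 mM NaCl. Glutathione donor and nickel acceptor beads followed; AlphaScreen signal read after 1 h.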
D2 PAM = human D2 receptor positive allosteric modulation | DiscoveRx D2 beta-arrestin cells, luminescence, 90 min; 100% = 57 uM dopamine signal | potentiation, % (no concentration beside the values) | hit rate 0.23% among 360,000 | AID 624464; active = potentiation of 50% or more; inconclusive = 30% to 50%; inactive = 30% or less;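 note: compound concentration not given in the record; tested on top of an EC20 dose of dopamine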
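PathHunter D2 cells, attached overnight at 37 deg C, received compound in DMSO plus dopamine at EC20 (50 nM final) for 90 min at 37 deg C. Beta-arrestin recruitment was read as luminescence after 1 h with detection reagent at ambient temperature.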
PINK1 expr mod = changes PINK1 expression. PINK1 immunofluorescence, high-content cytometry, 24 h. hit rate 0.2% among 410,000. Potency, µM (series often up to 76.6 µM), without a hit: top-dose activation (PINK1 increase), most hits filed as activators; active = well fitted activation curve with a large enough effect; inconclusive = small, poorly fitted or top-dose-only effect; inactive = flat fitted curve, though single readings scatter; cell line not stated here;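 note: potency is the fitted concentration of half-maximal effect; % of control where 0% means no effect; nearly all actives have a fitted effect of over 65% in size; a mitochondrial uncoupler was the plate control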
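Decision-based qHTS: stable cells, 24 h exposure to five compound concentrations, CCCP as control. Fixed cells stained for PINK1 plus nuclear, mitochondrial and cell markers, cytometer read.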
Sfp inh = Sfp phosphopantetheinyl transferase inhibition | Q9F4F7 | AID 1490 | Potency, µM, inactives show max response, negative = inhibition, actives largely listed as inhibitors | Biochemical Sfp PPTase activity, qHTS | hit rate 3.5% among 310,000; active = well fitted inhibition curve with a large enough effect; inconclusive = small, poorly fitted or top-dose-only effect, or another doubt; inactive = no such curve, though single readings can be large or run the other way;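 note: the enzyme is Sfp with the accession as filed and its product quenches rhodamine fluorescence; potency is the fitted concentration of half-maximal effect; 0% = enzyme reaction without inhibitor and -100% = no enzyme wells; top concentration of the series not given in the record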
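Compounds were incubated with enzyme (final 15 nM) for 15 min at room temperature before substrate addition started the reaction. Fluorescence at 525 nm excitation, 598 nm emission was recorded immediately and after 30 minutes.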
TRPV1 PAM = human TRPV1 potentiation; Q8NER1; TRPV1-expressing cells, Fluo-8 calcium influx, capsaicin EC20 potentiation; host cell line not named in the record; control for the full effect not named in the record; potentiation, % at 8.33 µM; hit rate 0.02% among 320,000; AID 540277; active means potentiation above 80%; inconclusive means 30% to 80%; inactive means below 30%; note: 0% is about no effect
Target sequence (Q8NER1 whole entry, looked up): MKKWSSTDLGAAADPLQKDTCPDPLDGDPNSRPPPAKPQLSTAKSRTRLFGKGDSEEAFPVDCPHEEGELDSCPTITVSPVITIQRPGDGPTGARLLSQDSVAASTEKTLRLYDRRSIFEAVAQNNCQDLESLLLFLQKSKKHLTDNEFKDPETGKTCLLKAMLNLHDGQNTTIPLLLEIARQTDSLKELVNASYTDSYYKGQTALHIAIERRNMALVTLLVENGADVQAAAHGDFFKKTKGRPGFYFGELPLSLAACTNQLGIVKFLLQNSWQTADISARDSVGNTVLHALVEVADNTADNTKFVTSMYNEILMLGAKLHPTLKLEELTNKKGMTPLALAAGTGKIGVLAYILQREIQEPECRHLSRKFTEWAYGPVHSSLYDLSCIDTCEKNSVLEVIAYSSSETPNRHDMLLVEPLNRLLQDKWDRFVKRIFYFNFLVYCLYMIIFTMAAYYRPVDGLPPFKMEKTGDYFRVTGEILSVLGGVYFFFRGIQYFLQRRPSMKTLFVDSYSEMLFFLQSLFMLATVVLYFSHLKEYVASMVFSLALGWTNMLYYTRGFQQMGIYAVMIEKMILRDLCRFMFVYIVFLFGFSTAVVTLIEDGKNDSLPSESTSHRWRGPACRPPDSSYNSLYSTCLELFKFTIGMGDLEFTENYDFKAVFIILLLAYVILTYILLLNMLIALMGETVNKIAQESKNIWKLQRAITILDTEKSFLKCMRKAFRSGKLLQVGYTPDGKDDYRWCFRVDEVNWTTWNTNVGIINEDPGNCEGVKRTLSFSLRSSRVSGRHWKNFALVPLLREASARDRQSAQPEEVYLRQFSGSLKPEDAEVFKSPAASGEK
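Fluo-8 calcium influx in TRPV1-expressing cells, kinetic read (ex 480/em 520 nm). Compound added and read 3 min for agonist activity, followed by capsaicin at EC20 final and 2 min further read for enhancement.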
The depositor's hits bear a star; ? = inconclusive; · = not tested or not shown; [ ] = another dose, or the depositor's remark.

SMILES | Six1-Eya2 blk | D2 agonist | CtBP-E1A blk | D2 PAM | PINK1 expr mod | Sfp inh | TRPV1 PAM
COc1ccc(/C(C)=N/Nc2ccccc2Cl)c(O)c1 | -1 | 0.8 | 9 | 1 | 5.9% | ? | 2
CCc1ccc(OCC2c3cc(OC)c(OC)cc3CCN2C(=S)NCCOC)cc1 (stereo not drawn) | -13 | -1.3 | -12 | -14 | 3.5% | -8% | 6
S=c1[nH]nc(COc2ccc(Cl)cc2)n1Cc1ccco1 | 16 | -4.0 | -10 | -10 | 0.7% | -4% | 7
CC(=O)Nc1nnc(CCS(=O)(=O)c2ccc(C)cc2)s1 | 4 | 1.5 | 2 | 3 | 1.7% | · | ·
CCCCOCCCNC(=O)c1ccc(NC(C)=O)cc1 | 2 | -0.7 | -22 | -6 | -3.5%[38.3 µM] | 7% | -2
COc1ccc(CSc2nncn2N)cc1Br | 8 | -0.4 | 0 | -2 | 0.9% | 12% | 0
CCc1nnc(NC(=O)CCC(=O)N2CCN(Cc3cc(F)ccc3OC)CC2)s1 | 0 | -0.7 | -4 | -40 | 0.1% | 16% | -4
CCOC(=O)C1CCN(C(=O)CCNC(=O)Cn2ccc3ccccc3c2=O)CC1 | 3 | -0.5 | -1 | -6 | -4.8%[38.3 µM] | 9% | 2
NC(=O)c1cccnc1Nc1cccc(F)c1 | -1 | -4.2 | 1 | 1 | 1.0% | 9% | 5
Cc1ccc2nc(NC(=O)[C@H](C)N3C(=O)C4CC=CCC4C3=O)sc2c1 (stereo partly drawn) | -5 | 1.0 | -7 | -1 | 1.6% | 10% | -21
CCCCN(C(=O)c1ccc(-c2ccc(Cl)cc2)o1)c1c(N)n(CCCC)c(=O)[nH]c1=O | 8 | -1.3 | · | -15 | -0.1% | · | 6
O=C(CSc1nc2ccccc2[nH]1)NC1CCCc2ccccc21 (stereo not drawn) | 15 | -1.7 | 29 | 2 | -0.3% | 14% | -6
COc1ccc(-c2nc(CSCC(=O)N3CCN(C(=O)c4ccco4)CC3)c(C)o2)cc1OC | -11 | -0.7 | 1 | -5 | 0.7% | -7% | 3
Cc1cc(C)c(C(=O)N2CCCC(CNS(=O)(=O)N(C)C)C2)o1 (stereo not drawn) | -1 | -7.0 | 5 | -6 | -1.6% | 12% | 2
CC1CCN(c2nnc(N3CCC(C)CC3)c3ccccc23)CC1 | 0 | -3.7 | 0 | 1 | 0.5% | 9% | -6
COc1cccc(C(NC(C)=O)c2nc(-c3cccnc3)cs2)c1 (stereo not drawn) | 2 | -3.5 | -3 | -14 | 0.8% | · | ·
O=C(CCN1CCCCCC1)Nc1ccc(F)c(F)c1 | -3 | -2.0 | 11 | -22 | 0.0% | -4% | -20
CC(=O)c1ccccc1OCC(O)CN1CCN(CCN2C(=O)c3cccc4cccc(c34)C2=O)CC1 (stereo not drawn) | -12 | -2.1 | -11 | -15 | -2.1% | 10% | 2
O=C(CCCCCNC(=O)c1ccccc1)N/N=C/c1ccc(O)cc1O | -28 | -2.5 | ? | -6 | 2.1% | 14% | 26
C[C@H](CO)N1C[C@H](C)[C@@H](CN(C)C(=O)NC2CCCCC2)Oc2c(NC(=O)C3CC3)cccc2C1=O | -4 | 2.5 | -4 | -4 | 1.0% | · | ·
O=C(CN1CCN(C(=O)c2ccc(-c3nc4ccccc4s3)o2)CC1)Nc1ccc(F)cc1 | -25 | 1.9 | -22 | 3 | -0.8% | · | -4
Cc1ccsc1C(=O)OCC(=O)c1ccc(OC(F)F)cc1 | 13 | 0.3 | · | -8 | 2.6% | · | 20
COc1cccc(C(=O)NC(=S)Nc2ccc3[nH]c(=O)[nH]c3c2)c1 | 0 | -4.0 | 18 | -5 | 15% | -4% | -8
CSc1nc(C)cc(OCC(=O)N2CCOCC2)n1 | 7 | -1.7 | 11 | -6 | -4.2% | -10% | 11
CS(=O)(=O)N1CCCC(C(=O)Nc2ccccc2C(F)(F)F)C1 (stereo not drawn) | 11 | -2.5 | 5 | -15 | 1.1% | -1% | -16

Reformatted as labelled records: part of the list above.
> CCCCN(C(=O)c1ccc(-c2ccc(Cl)cc2)o1)c1c(N)n(CCCC)c(=O)[nH]c1=O
  Six1-Eya2 blk: 8
  D2 agonist: -1.3
  CtBP-E1A blk: ·
  D2 PAM: -15
  PINK1 expr mod: -0.1%
  Sfp inh: ·
  TRPV1 PAM: 6
> O=C(CSc1nc2ccccc2[nH]1)NC1CCCc2ccccc21 (stereo not drawn)
  Six1-Eya2 blk: 15
  D2 agonist: -1.7
  CtBP-E1A blk: 29
  D2 PAM: 2
  PINK1 expr mod: -0.3%
  Sfp inh: 14%
  TRPV1 PAM: -6

Next section:
SMILES | Six1-Eya2 blk | D2 agonist | CtBP-E1A blk | D2 PAM | PINK1 expr mod | Sfp inh | TRPV1 PAM
CCc1nc2c(OCc3cc(Cl)cc(Cl)c3)cccn2c1N(C)C(=O)c1cccc(OC)c1 | -7 | -1.7 | 0 | -14 | ? | · | ·
COc1ccc(CN(C)CCCn2ccc(NC(=O)OCc3ccccc3)nc2=O)cc1OC | -6 | -1.4 | -7 | · | -1.2% | · | ·
COc1cc(-c2ccc(NC(=O)CN3CCC(C)CC3)c(OC)c2)ccc1NC(=O)CN1CCC(C)CC1 | -1 | -4.7 | 2 | -20 | 4.7% | 0% | ·
CC(=O)NC(c1cccc(F)c1)c1nc(-c2cnn(C)c2)cs1 (stereo not drawn) | 1 | -3.8 | 2 | -8 | 0.5% | · | ·
COc1ccc(/C=C/C(=O)NC(=S)NNC(=O)c2cccs2)cc1OC | -11 | -1.5 | -2 | -2 | 8.7% | -16% | -2
COC(=O)CNC(=O)c1cn(CC(C)C)c(=O)c2cc(OC)c(OC)cc12 | -2 | -1.1 | 9 | -8 | -1.8% | 23% | -13
COc1cccc(OCc2cc(C(=O)N3CCN(C4CCCC4)CC3)no2)c1 | 0 | -3.4 | -6 | -34 | 1.1% | 1% | -16
CC(=O)c1ccc(Cc2ncc(C(F)(F)F)cc2Cl)s1 | -2 | -3.6 | 9 | -38 | 4.2% | -10% | -6
O=C(CSc1n[nH]c(=O)n1C1CC1)Nc1ccc(OC(F)(F)F)cc1 | -3 | -2.7 | -3 | -15 | 2.4% | · | ·
Cc1ccc(NC(=O)COC(=O)c2c[nH]c3ccccc23)cc1C | -9 | 0.4 | · | 4 | 7.1% | · | -8
CCCC[C@@H]1CN=C(N)N1CC(C)(C)C | 8 | -1.6 | 2 | -28 | 1.2% | · | ·
COc1cccc(C(=O)Oc2cccc(N3C(=O)C4C5CC(C(Br)C5Br)C4C3=O)c2)c1 (stereo not drawn) | -10 | -1.3 | -1 | -20 | · | 4% | 21
COc1ccc(CCNC(=O)C(=O)Nc2ccc3c(c2)OCCO3)cc1OC | 4 | 0.8 | 11 | -6 | 1.6% | 11% | 2
CSc1nc(-c2ccco2)nn1C(=O)c1ccco1 | -3 | -4.0 | -1 | -3 | -0.5% | ? | 11
O=C(CN(C1CCCCC1)S(=O)(=O)c1ccc(Br)cc1)NCc1ccncc1 | 4 | -2.6 | · | 2 | -1.5% | 11% | -7
CCn1c(SCC(=O)Nc2ccc(F)cc2)nnc1C1CC1 | -2 | 8.2 | -13 | 1 | 1.3% | -7% | -3
O=C(CSc1nc2ccccc2s1)N1N=C(c2cccs2)CC1c1ccc(F)cc1 (stereo not drawn) | 3 | -0.1 | 8 | -19 | -1.7% | 4% | 29
Cc1cc(NCCCN2CCOCC2)n2ncc(-c3ccc(Cl)cc3)c2n1 | 3 | -1.8 | 9 | -8 | 1.1% | -15% | -1
CCOC(=O)N1CCC(NC(=O)COc2cc(=O)n(C)c3ccccc23)CC1 | -1 | 0.0 | -20 | -4 | -0.8% | 10% | -3
OCCCc1nc2n(n1)C(c1ccccc1Cl)C=C(c1cccs1)N2 (stereo not drawn) | -7 | 2.5 | 2 | 0 | 16%[38.3 µM] | 50µM* | ·
CC1CCN(C(=O)CSc2nnc(CNC(=O)COc3ccc(Cl)cc3)o2)CC1 | 8 | -2.1 | 8 | -5 | -2.0% | 12% | -5
COc1ccc(-c2cc3c(=O)n(CC(=O)NCc4ccc(F)cc4)ncn3n2)cc1 | 7 | -4.9 | 11 | -1 | 13% | 1% | 1
CCOC(=O)c1cc2nc(Nc3ccc(OC)cc3)sc2s1 | -8 | -0.2 | 7 | ? | 12% | -4% | 2
CCc1nnc(NC(=O)CSc2nnc(-c3ccccc3O)n2CC)s1 | 2 | -2.5 | -3 | 0 | -3.9%[38.3 µM] | -1% | 5
CCCCn1nnnc1C(c1ccccc1)N1CCN(c2ccccc2)CC1 (stereo not drawn) | -8 | · | 0 | · | 0.9% | · | ·
SMILES | Six1-Eya2 blk | D2 agonist | CtBP-E1A blk | D2 PAM | PINK1 expr mod | Sfp inh | TRPV1 PAM
COc1ccc(NC(=O)CN(C)C(=O)c2cc(C)on2)cc1 | 7 | -3.2 | -5 | 9 | 2.1% | · | -1
CCOC(=O)[C@]12CCC=C1N(Cc1ccc(Cl)cc1Cl)C(=O)[C@H](CC(=O)NCc1ccccc1)C2 | -9 | · | 2 | · | 0.0% | · | ·
Cc1ccc2c(c1)NC(=O)C(CC(=O)NCCCN1CCN(c3cc(C)ccc3C)CC1)O2 (stereo not drawn) | -1 | -4.8 | -7 | -13 | 3.3% | 1% | 7
COCCSc1nnc(NC(=O)C2CC(=O)N(C3CCCC3)C2)s1 (stereo not drawn) | 12 | -4.8 | 6 | -7 | 1.1% | 19% | 1
O=c1oc(Cc2ccccc2)nc2ccccc12 | 5 | 1.3 | · | -1 | -0.7% | 15% | 9
Cn1cnnc1SCC(=O)Nc1ccccc1C(=O)NC1CC1 | 2 | -1.5 | 3 | -7 | 3.6% | 11% | 8
COC(=O)c1c(-c2c(Cl)cccc2Cl)noc1NC(=O)NN1CCOCC1 | -4 | -5.0 | 3 | 2 | 4.1% | 8% | 3
CN(CC(=O)Nc1ccccc1Cl)CC(=O)Nc1c(F)cccc1F | 18 | -4.2 | 0 | -5 | 0.2% | 9% | -2
O=C(COC(=O)/C=C/c1ccc(Cl)cc1)NCCC1=CCCCC1 | 0 | -4.3 | -1 | -6 | -1.2% | -4% | -16
c1ccc(-c2cn3nc4c(nc3n2)CCCC4)cc1 | 4 | -9.5 | 12 | -3 | -2.3% | 79µM* | 2
C/C(=N\OCC(=O)OCC(=O)NCc1ccccc1)c1ccc2c(c1)OCO2 | 0 | -2.9 | 4 | 4 | -0.3% | · | 4

Individual results from the list:
In Six1-Eya2 blk, `O=c1oc(Cc2ccccc2)nc2ccccc12` has 5
In PINK1 expr mod, `c1ccc(-c2cn3nc4c(nc3n2)CCCC4)cc1` has -2.3%
In Six1-Eya2 blk, `CCOC(=O)[C@]12CCC=C1N(Cc1ccc(Cl)cc1Cl)C(=O)[C@H](CC(=O)NCc1ccccc1)C2` has -9
